2A StopGo – FMDV 2A StopGo reporter, luciferase signal | human cells with a luciferase reporter of 2A StopGo recoding; control for the full effect not named in the record | Potency, µM (titrated, usually from 57.9 µM), inactives show at the top dose signal change, negative = less light | actives 1.2% (n = 410,000) | AID 1159524; active = well fitted falling curve with a large enough effect; inconclusive = small, poorly fitted or top-dose-only effect; inactive = no such curve, though single readings can be large or run the other way; tested in HEK293T cells; note: % is set by controls: 0 for no effect and ±100 for the full control effect; nearly all actives have a fitted effect of over 45% in size; luciferase light after 4 h
RE007 growth inh – less growth of the S. pombe RE007 Vpr strain; S. pombe RE007 Vpr strain, BacTiter-Glo ATP luminescence, 24 h; control for the full effect not named in the record; Potency, µM (highest dose often 92.2 µM), without a hit: top-dose activity change, negative = less growth; actives 0.21% (n = 360,000); active = well fitted falling curve with a large enough effect; inconclusive = small, poorly fitted or top-dose-only effect; inactive = no such curve, though single readings can be large or run the other way;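 note: % is set by controls: 0 for no effect and ±100 for the full control effect; nearly all actives have a fitted effect of over 50% in size; the assay follows cell death caused by Vpr and the record does not say whether a fall means rescue or toxicity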
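Fission yeast RE007 carrying one integrated HIV-1 vpr copy, seeded at OD 0.01 in PMG+AL medium with 23 nL pinned compound. Grown 24 h at 30 degrees; viability read by BacTiter-Glo luminescence after 5 min.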
Cruzain Triton – inhibitors of Trypanosoma cruzi cruzain with detergent | Potency, µM, for inactives: max response, negative = inhibition, most hits filed as inhibitors | actives 0.43% (n = 200,000) | purified cruzain, Z-FR-AMC fluorescence, 0.01% Triton | AID 1478;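 note: plate controls were neutral wells for no effect and buffer without enzyme for full effect; nearly all actives have a fitted effect of over 40% in size; top concentration of the series not given in the record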
Target sequence (P25779 123-467 limits assumed): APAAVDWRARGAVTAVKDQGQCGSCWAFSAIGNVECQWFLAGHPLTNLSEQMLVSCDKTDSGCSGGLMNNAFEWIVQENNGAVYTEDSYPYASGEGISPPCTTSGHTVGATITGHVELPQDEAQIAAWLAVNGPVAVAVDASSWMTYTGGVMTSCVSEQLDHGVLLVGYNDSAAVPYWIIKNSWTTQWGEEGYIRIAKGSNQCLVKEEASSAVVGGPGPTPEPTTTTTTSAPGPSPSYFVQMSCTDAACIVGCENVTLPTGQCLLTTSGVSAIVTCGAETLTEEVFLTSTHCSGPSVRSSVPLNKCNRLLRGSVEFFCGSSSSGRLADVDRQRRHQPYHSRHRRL
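Detergent-containing run (0.01% Triton X-100) in acetate buffer pH 5.5 with 5 mM DTT: enzyme at 1.5 nM final, 15 min compound preincubation at room temperature, then 2 uM Z-FR-AMC substrate. Activity taken as 60 s fluorescence increase at 360/450 nm.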
NS1 function inh – influenza NS1 inhibition; actives 0.4% (n = 270,000); Potency, µM (top dose mostly 46.1 µM), inactives show at the top dose activity, positive = more growth; S. cerevisiae slowed by influenza A NS1, growth recovery by OD600; active means well fitted rising curve with a large enough effect; inconclusive means small, poorly fitted or top-dose-only effect; inactive means no such curve, though single readings can be large or run the other way; note: nearly all actives have a fitted effect of over 50% in size
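Compounds were scored for reversing the slow growth caused by influenza A NS1 in S. cerevisiae, measured by optical density at 600 nm. Assay medium contained 2% galactose at pH 6.0; NS1-free yeast of the same strain were the positive control.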
Marburg entry inh – blocks Marburg virus binding to or entry into cells | Marburg virus pseudotyped entry inhibition, cell reporter; control for the full effect not named in the record; about a third of the inactives were read at about 46 µM | Potency, µM (series often up to 37.8 µM), inactives show at the top dose activity change, negative = inhibition, actives largely listed as inhibitors | actives 1.8% (n = 300,000); active = well fitted inhibition curve with a large enough effect; inconclusive = small, poorly fitted or top-dose-only effect, or effect the other way; inactive = flat fitted curve, though single readings scatter; tested in HEK293 cells; about a fifth of its hits are not listed in these tables; note: % is set by controls: 0 for no effect and ±100 for the full control effect; luciferase read-out
SARS PLP yeast – inhibitors of SARS-CoV papain-like protease in yeast; AID 485353; S. cerevisiae expressing SARS-CoV PLpro, growth rescue; control for the full effect not named in the record; Potency, µM (doses to about 32.9 µM), without a hit: at the top dose activity, positive = growth rescue; actives 0.19% (n = 330,000); active means well fitted rising curve with a large enough effect; inconclusive means small, poorly fitted or top-dose-only effect; inactive means no such curve, though single readings can be large or run the other way; note: 0% is about no effect; nearly all actives have a fitted effect of over 55% in size; growth read by luminescence after 48 h
Cruzain inh noDet – inhibitors of Trypanosoma cruzi cruzain without detergent. AID 1476. actives 2.3% (n = 200,000). purified cruzain, Z-FR-AMC fluorescence, no detergent. Potency, µM, for inactives: max response, negative = inhibition, usual class: inhibitors. P25779;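 note: plate controls were enzyme without inhibitor for no effect and buffer without enzyme for full effect; nearly all actives have a fitted effect of over 40% in size; top concentration of the series not given in the record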
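Detergent-free condition (0.00005% Triton X-100) in acetate buffer pH 5.5 with DTT. 1.5 nM enzyme and compound were pre-mixed 15 min, then 2 uM Z-FR-AMC substrate added; reaction progress from fluorescence change between first and third reads (60 s).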
LASV entry inh – inhibitors of Lassa virus binding or cell entry; Lassa virus pseudotype entry inhibition, cell reporter; control for the full effect not named in the record; Potency, µM (series often up to 37.9 µM), for inactives: top-dose activity change, negative = inhibition, usual class: inhibitors; actives 1.2% (n = 300,000); AID 540256; active means well fitted inhibition curve with a large enough effect; inconclusive means small, poorly fitted or top-dose-only effect, or effect the other way; inactive means flat fitted curve, though single readings scatter; tested in HEK293 cells; note: % is set by controls: 0 for no effect and ±100 for the full control effect; nearly all actives have a fitted effect of over 50% in size; luciferase read-out
* hit, by the source's call; ? = inconclusive; . = not tested or not shown; & = joins results of further samples; [ ] = another dose, or the depositor's remark. Unless noted, calls come from the whole dose curve; as a rule, active = well fitted curve in the direction sought with a large enough effect; inconclusive = small, poorly fitted or top-dose-only effect, or another doubt; inactive = no such curve, though single readings can be large; an effect the other way counts as inactive or inconclusive. Potency is the fitted concentration of half-maximal effect.

Structure	2A StopGo	RE007 growth inh	Cruzain Triton	NS1 function inh	Marburg entry inh	SARS PLP yeast	Cruzain inh noDet	LASV entry inh
Cc1ccccc1C(=O)NCCCNC(=O)c1ccccc1C	6.4%	-8.5%	.	.	5.4%[46.1 µM]	.	.	-17.8%
Cc1ccc(N2CCN(c3cc(C)nc4nc(C)nn34)CC2)c(C)c1	-20.0%	10.7%	1.5%	-51.8%	18.7%	9.9%	3.9%	6.6%
COc1ccc(C2C(C(=O)Nc3ccccc3)=C(C)Nc3nc(-c4ccccc4)nn32)c(OC)c1 (stereo not drawn)	11.4%	.	-9.0%	.	-3.2%[46.1 µM]	.	4.0%	-8.5%[46.1 µM]
CC(OC(=O)c1cnccn1)C(=O)c1ccccc1 (stereo not drawn)	-13.4%	-6.4%	.	.	?	-0.8%	.	25.5%
CN(C)c1ccnc2sc(C(=O)c3ccccc3)c(N)c12	28.7%	-17.6%	-6.2%	-46.9%	?	-16.7%	-24.0%	5.9%
Cc1ccc(-c2nc3cccnc3s2)cc1NC(=O)C(C)C	-4.0%	.	-3.7%	.	.	.	2.4%	9.0%[46.1 µM]
c1ccc2nc(-c3ccc(N4CCOCC4)cc3)ccc2c1	-0.9%	-21.4%	5.7%	7.9%	2.31µM*	-6.2%	-2.9%	3.66µM*
Cc1nnc(NC(=O)c2ccc(F)c(S(=O)(=O)N3CCOCC3)c2)s1	-21.2%	11.2%	.	.	12.6%	0.4%	.	5.5%
CCSC1=C(C#N)C2(CCCCC2)C(C#N)=C(N)N1	-19.7%	-27.2%	-4.8%	-0.3%	-11.7%	-5.8%	-6.2%	-24.8%
CC(C)c1cc(NCc2ccccn2)n2c(nc3ccccc32)c1C#N	-24.6%	-0.5%	.	.	?	-1.1%	.	.
COc1ccc2nc(NC3=NC(C(=O)Nc4ccc(C)cc4)CC(=O)N3)nc(C)c2c1 (stereo not drawn)	.	.	-3.8%	9.7%	-16.3%	0.5%	1.7%	-9.8%
CCOCCCNC(=O)NC12CC3CC(CC(C3)C1)C2	45.0%[activator]	7.3%	-5.3%	3.3%	3.1%	-0.7%	3.0%	-3.5%
CCCCCCCSc1cc(OC)c(CCNC)cc1OC	0.0%	46.8%	2.7%	-8.0%	?	-9.5%	11.7%	?
Cc1ccc(-c2nc3cc(NC(=O)Cc4ccc(Cl)cc4)ccc3o2)cc1	20.6%	.	-0.6%	.	.	.	?	-23.7%[46.1 µM]
COc1cc(C(=O)N2CCN(C(=O)C(Cc3cc(C)ccc3C)NC(C)=O)CC2)cc(OC)c1OC (stereo not drawn)	15.6%	-7.9%	0.0%	-7.9%	-0.9%	20.8%	?	17.9%[14.3 µM]
CN1CCN(C(=O)CCC(=O)c2ccc(F)cc2)CC1	13.2%	6.9%	-0.6%	-0.9%	1.5%	-1.8%	-12.2%	6.7%
O=C(COC(=O)c1cc(S(=O)(=O)N2CCOCC2)ccc1F)NC1CC1	-21.2%	9.6%	.	.	?	3.3%	.	9.2%
CC(C)CNC(=S)NNC(=O)CC(C)O (stereo not drawn)	-9.0%	-1.6%	.	2.0%	10.9%[46.1 µM]	-1.3%	.	0.4%
COc1cc(OC)cc(C(=O)N2CCN(C3CCC(C)CC3)CC2)c1 (stereo not drawn)	-1.7%	-11.5%	.	.	-18.5%[46.1 µM]	.	.	-20.6%[46.1 µM]
O=C(CCc1nc2ccccc2[nH]c1=O)OCC(=O)c1cccc2ccccc12	.	.	-4.0%	-1.2%	.	-3.4%	-15.3%	.
Cc1ccc([N+](=O)[O-])cc1-c1ccc(/C=N/NC(=O)CN2CCOCC2)o1	-16.0%	-25.8%	.	-4.2%	.	0.5%	.	.
Cn1nc([N+](=O)[O-])c2c(-c3nc4ccccc4s3)c(N)n(C3CCCCC3)c2c1=O	-20.3%	-14.6%	1.6%	?	8.1%	?	-6.5%	-12.0%
CCOc1ccc(CCNC(=O)c2c(C)oc3ncn(CC(C)C)c(=O)c23)cc1OCC	-24.7%	.	-2.2%	.	.	.	-9.0%	3.3%[46.1 µM]
COc1cccc(CNC(=O)c2ccc3c(c2)c(C)c(C)n3Cc2ccccc2)c1	3.3%	.	1.0%	.	.	.	?	24.6%[46.1 µM]
CCN(CC)CCNC(=O)C1CCN(c2cc(C)nc3c(-c4ccc(Cl)cc4)c(C)nn23)CC1	2.3%	.	0.3%	.	?	.	-5.9%	?
Cc1ccc(CNC(=O)CCC2CCCN(Cc3ccc4cccc(F)c4n3)C2)o1 (stereo not drawn)	-11.7%	-11.9%	.	-5.1%	?	0.3%	.	-1.0%
CC(C)c1ccc(NC(=O)CN2C(=O)COc3ccc(S(=O)(=O)N4CCOCC4)cc32)cc1	11.5%&0.8%	2.9%	-1.4%	-10.6%	.	-1.7%	-1.4%	?
COC(=O)CNC(=O)c1ccc(C)s1	6.8%	-3.8%	4.7%	9.3%	4.6%	14.0%	-1.7%	-17.2%
CC(C)=C1C2CCC1C1C(=O)N(c3ccc4c(c3)OCO4)C(=O)C21 (stereo not drawn)	-11.8%	.	-3.1%	6.2%	-4.0%	-2.0%	4.5%	1.0%
CCN1CCN(C(=O)CCN2C(=O)COc3ccc(C)cc32)CC1	-2.1%	-10.0%[3.69 µM]	6.9%	-2.9%	2.4%	-6.4%	-0.1%	-10.1%
CCn1c(CCNC(=O)c2cccs2)nnc1SCC(=O)c1ccc(OC)cc1	-4.6%	-10.8%	.	13.9%	6.7%	.	.	-6.0%
CN(CC(=O)NCCc1ccc(S(N)(=O)=O)cc1)Cc1ccc(Cl)cc1Cl	?	5.4%	.	7.9%	?	4.2%	.	-17.1%
CCOC(=O)/C=C1\NC(C)(C)Cc2cc(OC)c(OC)cc21	-4.7%	-25.7%	0.3%	2.1%	-1.4%	0.7%	-0.6%	-4.6%
NC(=O)CCN(C1CCCCC1)S(=O)(=O)c1cccc2nsnc12	17.5%	-20.2%	.	5.3%	14.6%[46.1 µM]	1.9%	.	13.9%[46.1 µM]
COc1cccc2c1cc1c(=O)n(CC(=O)N3CCN(c4ccc(F)cc4)CC3)nc(C)n12	-12.5%	.	-2.2%	.	10.0%[46.1 µM]	.	-5.3%	.
O=C(NCc1cccs1)c1nn(-c2ccccc2F)nc1CO	?	.	-0.9%	.	11.5%[46.1 µM]	.	-0.3%	-26.2%[46.1 µM]
CCc1nn2cc(C(=O)c3cc(C)ccc3O)cnc2c1-c1ccc(F)cc1	?	-9.3%	-4.9%	-5.8%	?	5.0%	-9.6%	9.0%
COc1ccc(CCNC(=O)c2ccc(OCC(=O)N3CCOCC3)c(OC)c2)cc1	-9.3%	-17.4%	.	.	18.8%	.	.	15.4%
O=C(c1cc(=O)[nH]c2ccccc12)N1CCc2ccccc2C1	8.6%	1.4%	.	1.2%	3.5%	-0.7%	.	2.1%
CN1CCN(C(CNC(=O)C(=O)NC2CCCC2)c2ccc(F)cc2)CC1 (stereo not drawn)	-2.9%	-16.5%	.	.	1.0%	1.1%	.	-6.6%

Copied from the entries so far, two compounds:
Structure	2A StopGo	RE007 growth inh	Cruzain Triton	NS1 function inh	Marburg entry inh	SARS PLP yeast	Cruzain inh noDet	LASV entry inh
Cc1ccccc1C(=O)NCCCNC(=O)c1ccccc1C	6.4%	-8.5%	.	.	5.4%[46.1 µM]	.	.	-17.8%
Cc1ccc(N2CCN(c3cc(C)nc4nc(C)nn34)CC2)c(C)c1	-20.0%	10.7%	1.5%	-51.8%	18.7%	9.9%	3.9%	6.6%

Other records follow:
Structure	2A StopGo	RE007 growth inh	Cruzain Triton	NS1 function inh	Marburg entry inh	SARS PLP yeast	Cruzain inh noDet	LASV entry inh
NC(=O)CC(NC(=O)c1ccccc1)c1ccc(NCCN2CCOCC2)c([N+](=O)[O-])c1 (stereo not drawn)	-9.9%	11.6%	.	-11.1%	.	-1.7%	.	.
CC(C)C[C@@H](CSc1ccc(Br)cc1)N1CCN(CC(C)C)CCC1=O	5.2%	-27.7%	.	-6.8%	.	-1.4%	.	.
COc1nc(N2CCOCC2)nc(-n2cccc2)n1	-13.9%	-9.5%	1.5%	-3.8%	?	-3.7%	-0.2%	9.1%
CCCCn1c(N)c(N(CC(C)C)C(=O)c2ccc(S(=O)(=O)N3CCC(C)CC3)cc2)c(=O)[nH]c1=O	-12.4%	3.7%	.	.	-12.7%	-0.5%	.	-0.1%
CCCCOc1ccc(-c2cnc3ccccc3n2)cc1	-79.5%	3.5%	-6.6%	-3.4%	?	9.0%	8.7%	?
CC12CC(NC(=O)N1c1cccc(C(=O)N3CCN(c4ccccc4)CC3)c1)c1ccccc1O2 (stereo not drawn)	?	-13.1%	-1.2%	5.2%	-0.8%	-4.6%	?	-9.9%
COc1ccccc1NC(=O)c1cccc(N2C(=O)C3C4C=CC(C4)C3C2=O)c1 (stereo not drawn)	-14.1%	-3.6%	.	-3.2%	14.0%[46.1 µM]	-7.2%	.	0.4%[46.1 µM]
O=C(COC(=O)CNC(=O)c1ccc(Cl)cc1Cl)NC1CCCCC1	18.8%	-2.0%	.	3.1%	23.6%	-4.4%	.	3.6%
COc1ccccc1CNc1ccc(-c2nc(-c3ccccn3)no2)cc1[N+](=O)[O-]	43.8%[activator]	.	-2.6%	.	-15.6%[46.1 µM]	.	?	24.9%[46.1 µM]
O=C(CSc1nnc2ccccn12)NNC(=O)c1ccccc1F	-5.0%	5.3%	.	.	3.1%	-0.5%	.	-3.0%
COC(=O)c1ccc(NC(=O)CSc2nc3ccc(OC)cc3[nH]2)cc1	7.0%	.	-22.6%	.	-0.7%[46.1 µM]	.	-4.5%	-4.0%[46.1 µM]
Cc1cc(C)n(Cc2ccc(Cl)nc2)n1	-14.4%	7.8%	.	.	-14.7%[46.1 µM]	2.2%	.	13.8%

Source: PubChem (National Center for Advancing Translational Sciences (NCATS))
